# Bioassay records (PubChem)
# GLA inh pH 4.5: alpha-galactosidase A (human) inhibition, pH 4.5 | P06280 | purified enzyme, 4-MU-alpha-Gal fluorescence, pH 4.5 | activity change, negative = inhibition, % at 105 µM | 230,000 tested, under 10 active; inconclusive = small, poorly fitted or top-dose-only inhibition, or a rising curve; inactive = flat fitted curve, though single readings scatter; no compound was filed as active;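 note: 0% = full activity with enzyme and -100% = basal without enzyme; dose as in the result columns while the protocol names 77 µM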
# Target sequence (P06280 whole entry, looked up): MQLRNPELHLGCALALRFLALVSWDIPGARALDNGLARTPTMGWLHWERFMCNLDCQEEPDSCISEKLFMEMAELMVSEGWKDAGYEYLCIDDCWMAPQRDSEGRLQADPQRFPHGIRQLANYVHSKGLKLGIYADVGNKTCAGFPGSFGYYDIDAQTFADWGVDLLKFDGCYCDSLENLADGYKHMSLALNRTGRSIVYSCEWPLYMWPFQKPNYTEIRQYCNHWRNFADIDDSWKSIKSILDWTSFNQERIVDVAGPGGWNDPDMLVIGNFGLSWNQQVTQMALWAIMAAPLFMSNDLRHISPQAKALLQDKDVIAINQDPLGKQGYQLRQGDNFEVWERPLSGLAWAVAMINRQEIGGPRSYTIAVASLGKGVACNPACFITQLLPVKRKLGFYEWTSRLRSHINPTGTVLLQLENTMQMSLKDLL
# miR-21 FLuc: miR-21 reporter, rising signal. Potency, µM (series often up to 38.3 µM), inactives show at the highest dose reporter change, positive = more light. HeLa miR-21 FLuc reporter, luciferase, 48 h. AID 2288. 340,000 tested, under 10 active; active = well fitted rising curve with a large enough effect; inconclusive = small, poorly fitted or top-dose-only effect; inactive = no such curve, though single readings can be large or run the other way;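 note: % of control where 0% means no effect; miR-21 action dims this reporter so a rising signal means less miR-21 action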
#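 HeLa miR-21-FLuc reporter line, endogenous miR-21; 2000 cells/well in DMEM/10% FBS; compound titration up to ~40uM final, 48 h, 37 degree Celsius; luciferase detection reagent, 15 min lysis, CCD luminescence.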
# Rango complex inh: prevents formation of the Rango-importin beta complex | Rango CFP/YFP FRET sensor + importin beta, 45 min | Potency, µM (doses to about 92.2 µM), without a hit: at the top dose inhibition of complex formation | 340,000 tested, 0.031% active | Q14974; active = rising FRET ratio curve, often small or poorly fitted; inconclusive = mostly compound fluorescence or quenching in the first reads; inactive = flat curves in all reads;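 note: potency is the fitted concentration of half-maximal effect; 0% = DMSO wells and 100% = buffer wells lacking importin beta; nearly all actives have a fitted effect of over 15% in size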
#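 FRET biosensor Rango (snurportin 1 IBB between N-terminal EYFP and C-terminal Cerulean), 50 nM in PBS/1 mM DTT/0.02% Tween-20/0.1% BSA, preincubated 5 min RT with compound; 0.125 microM importin beta added, 45 min RT, CFP/YFP FRET ratio read.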
# Rango dissoc inh: prevents RanGTP from dissociating the Rango-importin beta complex. O95149+P62826. Biochemical FRET Rango-importin beta, RanGTP-induced dissociation. Potency, µM (series often up to 46.1 µM), for inactives: at the top dose activity change, negative = inhibition. 340,000 tested, 0.071% active. AID 540253; active means falling FRET ratio curve, often poorly fitted, with flat reads before Ran was added; inconclusive means other falling curves, or compound fluorescence or quenching; inactive means flat or rising ratio curve;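 note: potency is the fitted concentration of half-maximal effect; % of control where 0% means no effect; nearly all actives have a fitted effect of over 45% in size; -100% = wells without RanGTP and RCC1; the record marks most hits as doubtful in a second field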
#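 Compounds sat 5 min at room temperature with 0.1 uM Rango biosensor plus 0.25 uM importin beta, then FRET pre-read. RanGTP-RCC1 (0.6 uM Ran, 2mM GTP, 0.2 uM RCC1) added for 45 min, and the CFP/YFP post-read measured blocked complex dissociation.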
# * marks the source's active call; other numbers are inactive results; u = inconclusive; x = no result given; & = joins results of further samples; [ ] = dose if it differs, or a comment.
# Results follow in this order: GLA inh pH 4.5, miR-21 FLuc, Rango complex inh, Rango dissoc inh
COc1ccccc1N(CC(=O)NCc1ccco1)C(=O)CCC(=O)Nc1ccccn1
→ x, 9%, -2.5%, 0%
CN1CCN(C(=S)C(=O)NCc2ccccc2)CC1
→ 5, 1%, -3.0%, 1%
CC1(C)Cn2c(nnc2-c2ccccc2)S1
→ -3, 0%, 0.2%, 0%
COc1cccc(NC(=O)C(C)OC(=O)c2n[nH]c3ccccc23)c1 (stereo unspecified)
→ x, x, 3.6%, 0%
Cc1cccc(C)c1OC(=O)c1ccccc1
→ x, x, 6.7%, 15%
CCSc1nc(C)c(CC)c(C)c1C(N)=O
→ -4, 0%, 5.8%, -9%
COc1ccc(NC(=S)c2ccccc2)cc1
→ 3, -65%, 0.0%, 10%
O=C(NCCc1ccc(Cl)cc1)C1CCCN1C(=O)Nc1ccccc1 (stereo unspecified)
→ x, 8%, -1.5%, -14%
Cc1ccccc1C(=O)NCC(=O)OC1CCCCC1=O (stereo unspecified)
→ x, x, 6.3%, 12%
Oc1c(Cl)cc(Cl)c2c1NCCC2
→ -4, 4%, u, 13%
O=C(c1ccc(Cl)c(S(=O)(=O)NCc2cccnc2)c1)N1CCCC1
→ x, x, 2.5%, -3%
COc1ccc(CCCc2n[nH]c(=S)o2)cc1C
→ 7, -6%, 2.4%, -25%
CCn1c(SCC(=O)Nc2nc3ccc(OC)cc3s2)nc2c1c(=O)n(C)c(=O)n2C
→ -6, -4%, 0.2%, -2%
Cc1nnc(NC(=O)C2CCCCC2)s1
→ -7, -6%, -2.7%, 14%
O=C(O)c1ccc(N/N=C/c2cc3ccccc3nc2Cl)cc1
→ -5, -81%, -4.1%, u
Cc1ccc(NC(=O)COC(=O)c2ccnn2C)cc1
→ -1, -3%, 1.3%, -2%
O=C(NCCc1ccccc1)C1CCN(C(=O)N2CCOc3ccccc32)CC1
→ x, -6%, 0.6%, 11%
COc1ccc(N(CC(=O)NCc2ccccc2)C(=O)Cn2nnc(-c3ccccc3F)n2)cc1OC
→ 5, -2%, 1.4%, 0%
C#CCN(CC=C)C(=O)c1ccc(OC2CCN(S(=O)(=O)N(C)C)CC2)cc1
→ x, -6%, 2.7%, -8%
CN(C)C(=O)CCc1ccc2c3c([nH]c2c1)[C@]1(CCC2CCCC2)[C@@H](C(=O)N2CCOCC2)C[C@H](CC(=O)NCc2ccco2)C(=O)N1CC3
→ x, x, 0.3%, 0%
O=C(CNS(=O)(=O)c1ccccc1F)Nc1ccc(N2CCOCC2)cc1
→ -4, 1%, -0.1%, 2%
CCCNS(=O)(=O)c1ccc(CCC(=O)Nc2ccc3c(c2)OCO3)cc1
→ 1, -8%, 8.2%, 2%
NC12CC3CC(C1)CC(CO)(C3)O2
→ 1, -1%, -3.5%, -2%
Cc1ccc(-c2nn(-c3ccccc3)cc2C=C2C(=O)CC(C)(C)CC2=O)cc1
→ 8, -31%, -2.3%, 6%
Cc1cccc(C(=O)O/N=C(\N)c2ccccn2)c1
→ x, u, 1.3%, -2%
CCC(=O)c1ccc(OCC(=O)N(Cc2nnc(-c3ccccc3Cl)o2)C2CC2)cc1
→ x, x, -3.8%, 6%
COc1ccc(C(=O)OCC(=O)c2ccc3[nH]c(=O)[nH]c3c2)c(OC)c1OC
→ x, x, 1.8%, 8%
CC(C)(c1ccccc1)c1ccc(OCCN2CCCC2)cc1
→ x, -4%, 2.3%, -8%
CNC(=O)c1cc2c(ccc3ccccc32)o1
→ 2, -43%, 2.6%, -11%
C[C@@H]1COC(=O)[C@H](CC(=O)OC(C)(C)C)C/C=C\C[C@H](CC(=O)N(CCO)Cc2ccccc2)C(=O)N1
→ x, x, 1.8%, 5%
CC1CCCN(c2ccc(C(=O)OCn3nnc4ccccc4c3=O)cc2[N+](=O)[O-])C1 (stereo unspecified)
→ 1, -2%, -0.6%, 2%
CC1C(=O)Nc2ccc(S(=O)(=O)N3CCN(c4cccc(C(F)(F)F)c4)CC3)cc2NC1=O (stereo unspecified)
→ x, 25%, 3.1%, -2%
Cc1ccc(Cn2cccc(NC(=O)NCc3ccccc3)c2=O)cc1
→ 4, 2%, 6.1%, 0%
Cc1cccc(C)c1OC(=O)Cc1ccccc1[N+](=O)[O-]
→ x, -2%, 6.8%, 5%
CC(C)Nc1ccc(-n2nc3ccccc3[n+]2[O-])cc1
→ x, -7%, 1.2%, -18%
CCCc1nn(C)c(C(=O)Nc2ccc(C)c(C)c2)c1Cl
→ -1, -51%, -3.3%, -17%
Cc1ccc(C)c(NNC(N)=S)c1
→ -3, 2%, -0.1%, -10%
O=C(Cc1cccs1)Nc1ccc(-c2nnc(-c3ccccc3)o2)cc1
→ x, x, -3.2%, 9%
CCOC(=O)CC(NC(=O)c1ccccc1)c1ccc(OC)cc1 (stereo unspecified)
→ -4, 1%, 1.4%, -5%
CN(C)/C=N/NC(=O)C1Cc2c(ccc3ccccc23)O1 (stereo unspecified)
→ x, -8%, 0.4%, 4%
Cc1cccc(CC2S/C(=N/c3ccccn3)NC2=O)c1 (stereo unspecified)
→ 7, -13%, 2.4%, 7%
COc1ccc(/C=N/NC(=O)c2c(Br)cnn2C)c2ccccc12
→ x, -6%, -0.6%, -10%
CCC1Oc2ccccc2N(CC(=O)NCCCN2CCOCC2)C1=O (stereo unspecified)
→ x, x, 3.2%, 0%
COc1ccccc1C(=O)COC(=O)c1cccc(S(=O)(=O)N2CCCC2)c1
→ x, -7%, 0.0%, 10%
CC(=O)/C(N=Nc1ccc(C(=O)O)cc1)=C(\C)O
→ -12, -3%, -1.1%, 11%
Cc1cccc(C)c1OCC(=O)Nc1ncn[nH]1
→ -2, 0%&-3%, -3.9%, -2%
Cc1cc(N2CCN(c3ccc(F)cc3)CC2)nc(-c2ccccc2)n1
→ -12, -5%, -5.5%, -7%
COc1ccc(NC(=O)CS(=O)(=O)c2cn(CC(=O)N3CCOCC3)c3ccccc23)cc1OC
→ x, 3%, 0.3%, 8%
CN(CC(=O)NC1CCCC1)S(=O)(=O)c1cnc[nH]1
→ -1[21.1 µM], 0%, 3.8%, 0%
CCCC(=O)Nc1cccn(Cc2ccccc2Br)c1=O
→ -5, -8%, -0.3%, -1%
O=C(Nc1ccccc1OC(F)F)c1ccc(S(=O)(=O)N2CCCC2)cc1
→ x, x, 5.2%, -1%
Nc1nc(Nc2cccc(F)c2)nc(N2CCOCC2)c1[N+](=O)[O-]
→ -13, -11%, -0.1%, -1%
Cn1c(SCC(=O)N2CCOCC2)nnc1-c1ccco1
→ x, -6%, -0.3%, -14%
O=C(c1cccc(S(=O)(=O)Nc2ccccc2Cl)c1)N1CCC1
→ x, x, 2.1%, 37%
O=C(CS(=O)CC(=O)Nc1ccc(Cl)cc1)NCC1OCCc2ccccc21 (stereo unspecified)
→ -2, -1%, 4.7%, 9%
CNCC(C)COc1ccccc1OCc1ccccc1 (stereo unspecified)
→ 10, -2%, 2.5%, 4%
CCN=C1SC(CC(=O)NCC)C(=O)N1CC (stereo unspecified)
→ 0, -3%, 1.2%, -11%
Nc1ncnc2c1ncn2CCN1CCCCC1
→ 5, -3%, -0.2%, 7%
c1ccc(Cc2cc[n+](Cc3ccccc3)cc2)cc1
→ -3, 5%, 3.8%, 21%
CCOc1ccc(C2C3=C(CCCC3=O)N(CC(=O)O)C3=C2C(=O)CCC3)cc1
→ x, 4%, u, u

# The listing continues:
# Results follow in this order: GLA inh pH 4.5, miR-21 FLuc, Rango complex inh, Rango dissoc inh
CCOC(=O)CC(=O)CSc1nc(C)cc(-c2cccnc2)c1C#N
→ -5, -4%, u, u
CCc1[nH]c(C(=O)O)c(C)c1C(=O)OC
→ -8, 3%, 0.9%, -2%
COc1ccc(-n2nnnc2-c2nc3ccccc3s2)cc1
→ 4, -33%, -0.3%, 2%
CCCCc1ccc(NC(=O)N2CCNC(=O)C2CC(=O)Nc2ccsc2C(=O)OC)cc1 (stereo unspecified)
→ -1, -13%, u, -19%
CC(=O)Nc1ccc(OCC[n+]2cccc(C(N)=O)c2)cc1
→ 0, -1%, -0.5%, 10%
CN1CCN(c2ccc(C(=O)c3ccc(Br)cc3)cc2[N+](=O)[O-])CC1
→ -6, 5%, -0.3%, 7%
Fc1ccccc1Nc1nc2ccccc2o1
→ x, -51%, 5.7%, 10%
Cc1cccc(NC(=O)CN2CCN(C(=O)C3CCCO3)CC2)c1C (stereo unspecified)
→ x, -3%, 0.1%, -3%
CC1CCCN(C(=O)COC(=O)c2cccc(NS(=O)(=O)c3ccccc3)c2)C1 (stereo unspecified)
→ x, x, -2.6%, -4%
C=CCN(CC=C)C(=O)C1CCN(Cc2ccc(OCc3ccccc3)cc2)CC1
→ x, -3%, -1.5%, 9%
COc1ccc(/C=N/Nc2nc(C)c([N+](=O)[O-])c(N(C)c3ccccc3)n2)cc1OC
→ 2, -5%, -0.3%, 2%
Cc1ccc(C(=O)N/C(=C\c2ccco2)C(=O)NCCc2c[nH]c3ccccc23)cc1
→ -5, -1%, -1.3%, -15%
CCC(=O)Nc1cccc(-c2nc3ccc(C)cc3o2)c1
→ x, -44%, u, 29%
O=C1/C(=C/c2ccccc2Cl)SC(=S)N1CCCC(=O)N(CCO)c1ccccc1
→ x, 21%, -4.2%, 6%
O=C(CSc1nc2ccccc2[nH]1)Nc1ccccc1F
→ 0, -13%, -0.5%, 16%
COc1ccccc1NS(=O)(=O)c1cc(-c2cnc(C3CC3)o2)ccc1C
→ x, 18%, -0.4%, 5%
Cc1ccc(OCCOCCn2cnc3ccccc3c2=O)cc1C
→ 3, -4%, x, x
Cc1cc(C(=O)NC2CCCN(Cc3ccc(Cl)cc3)C2)n(C)n1 (stereo unspecified)
→ x, 13%, 3.4%, -3%
O=C(NCc1ccc(OC(F)(F)F)cc1)c1ccc2c(c1)S(=O)(=O)c1ccccc1C2=O
→ x, x, -1.6%, 1%
COCCNC(=O)c1cc(-c2ccccc2C)n(CC2CC(c3cccc([N+](=O)[O-])c3)=NO2)n1 (stereo unspecified)
→ x, x, -2.1%, 1%
COc1cc(/C=C(\NC(C)=O)C(=O)Nc2ccccc2C)ccc1OC(C)=O
→ -3, -6%, 2.0%, 0%
O=C(CN1CCCCC1)Nc1cccc(Oc2ccccc2)c1
→ -11, -7%, -2.5%, -16%
Cc1c(CCOC(=O)c2cccc([N+](=O)[O-])c2)sc[n+]1CC(=O)c1ccccc1
→ 0, -10%, -1.3%, -2%
CCc1c(O)nc2ccccn2c1=O
→ -4, 0%, 0.1%, -15%
C=CCc1ccc(OCC(O)COc2ccc(CC=C)cc2OC)c(OC)c1
→ x, 1%, -0.6%, -2%
CCOC(=O)c1ccc(NC(=O)CSc2ccc(-c3cccnc3)nn2)cc1
→ -1, 20%, 0.5%, 2%
O=C(NC1=C(Nc2ccc(Cl)cc2)C(=O)c2ccccc2C1=O)c1ccccc1
→ 1, 29%, 3.0%, 6%
Clc1cccc(CSc2nnc(-c3cccnc3)n2Cc2ccco2)c1
→ 0, -1%, -0.8%, 5%
COc1cc(/C=C/c2cc(C(F)(F)F)[nH]c(=O)n2)cc(OC)c1OC
→ 6, 11%, 4.5%, 2%
CCN(CC)C(=O)n1c(Cc2ccccc2)nc2ccccc21
→ x, 2%, 1.6%, -2%
CCCCC(=O)NC(=S)Nc1ccc(Cl)c(C(=O)O)c1
→ 3, -13%, 2.8%, 4%
Cc1cccc(/C=N/n2c(COc3ccccc3)n[nH]c2=S)c1
→ x, -5%, u, 2%
Nc1ccccc1SCc1cn2ccccc2n1
→ 3, -42%, 1.8%, 11%
COc1ccc2c(c1)c(C(=O)CN1CCC3(CC1)OCCO3)c(C)n2C
→ 3, -2%, -0.2%, -15%
CCOC(=O)c1cccc(NC(=O)N[C@@H](C)C(=O)OC)c1
→ -6, -5%, 2.8%, 0%
N#C/C(=C(/O)c1ccc([N+](=O)[O-])o1)c1nc2ccccc2[nH]1
→ -5, 0%, 0.5%, u
COc1cccc2cc(-c3nc(-c4cccs4)cs3)c(=O)oc12
→ 3, -46%, u, u

# These rows are one share of the data, so the mix of outcomes need not match the whole.
